Bioassay records as filed in PubChem BioAssay.
VDR inh = blocks the human vitamin D receptor; P11473; VDR-SRC2-3 peptide fluorescence polarization, 2 h; 400,000 compounds, 0.93% hits; Potency, µM, for the others: max response, negative = inhibition, usual class: inhibitors; active = well fitted inhibition curve with a large enough effect; inconclusive = small, poorly fitted or top-dose-only effect, or another doubt; inactive = no such curve, though single readings can be large or run the other way; note: series mostly up to about 120 µM
Target sequence (P11473 whole entry, looked up): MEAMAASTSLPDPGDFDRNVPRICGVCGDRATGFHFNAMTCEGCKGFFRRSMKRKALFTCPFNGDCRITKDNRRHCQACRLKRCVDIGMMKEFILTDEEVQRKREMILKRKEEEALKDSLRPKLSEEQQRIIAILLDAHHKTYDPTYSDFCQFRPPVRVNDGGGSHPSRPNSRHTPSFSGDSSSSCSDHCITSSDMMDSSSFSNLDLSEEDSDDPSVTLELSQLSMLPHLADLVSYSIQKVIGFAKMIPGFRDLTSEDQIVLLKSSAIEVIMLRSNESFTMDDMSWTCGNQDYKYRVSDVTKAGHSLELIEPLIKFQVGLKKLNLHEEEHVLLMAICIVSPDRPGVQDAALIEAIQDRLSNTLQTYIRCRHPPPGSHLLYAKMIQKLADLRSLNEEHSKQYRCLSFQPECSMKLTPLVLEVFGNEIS
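After 23 nl compound addition and a short centrifugation, plates sat for 2 hours at ambient temperature; polarization of fluorescence then indicated loss of VDR binding to peptide SRC2-3.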
Active calls of the source: *; ? = inconclusive; [ ] = dose if it differs, or a comment. % is set by controls: 0 for no effect and ±100 for the full control effect; potency is the fitted concentration of half-maximal effect. A portion of the library (hit frequency here may not be typical).

VDR inh	Molecule
-23%	O=c1[nH]cnc2c1ncn2[C@@H]1O[C@H](CO)[C@@H](O)[C@H]1O
9%	COC(=O)c1cnn2c(C(F)(F)F)cc(-c3ccccc3)nc12
-6%	Cc1nonc1OCC(C)(COc1nonc1C)NC(=O)c1ccc(Cl)cc1
-6%	O=C(O)C1CCN(c2ccc(S(=O)(=O)N3CCOCC3)cc2[N+](=O)[O-])CC1
-8%	CCN(CC)CCCNc1ncnc2ccccc12
4%	COC(=O)c1ccc(COC(=O)C23CC4CC(CC(O)(C4)C2)C3)o1
-8%	COC(=O)c1cc(Cl)cc2c(C)c(C3(O)CCCCC3)[nH]c12
0%	COc1cc(C(=O)NCC(=O)OC(C)C(=O)Nc2ncc(Cl)cc2Cl)cc(OC)c1OC (centres undefined)
2%	COc1ccc(C)cc1NC(=O)CSc1nnc(COc2ccc(Cl)cc2)n1Cc1ccco1
-6%	CCOC(=O)c1c(C)[nH]c(C(=O)N/N=C\c2ccccc2Cl)c1C
-4%	COc1ccc(OCC(=O)N/N=C/C(C)=C/c2ccco2)c(Br)c1
3%	COc1ccccc1NS(=O)(=O)c1ccc(C(=O)N2CCCCCC2)cc1
39%[activator]	O=S(=O)(Nc1cc(Cl)ccc1N1CCCCC1)c1cccs1
-31%	O=C(O)c1ccccc1C(=O)N1N=C(c2ccccc2)CC1c1ccccc1O (centres undefined)
7%	CC1CCN(C(=O)CN(c2ccc3c(c2)OCCO3)S(=O)(=O)c2ccccc2)CC1
8%	COC(=O)c1cc(=O)n2c(sc3ccccc32)c1C#N
-17%	O=C(CCN1C(=O)[C@@H]2Cc3ccccc3CN2C1=O)NCc1ccccc1
79µM*	CCOc1ccc(NC(=S)Nc2ccc3nsnc3c2)cc1
-5%	Cc1cc(N2CCN(C)CC2)nc2ccc(NC(=O)c3ccc(C(C)(C)C)cc3)cc12
10%	COc1ccc(-c2nc3cc(NC(=O)Cc4ccc(OC)c(OC)c4)ccc3o2)cc1
-16%	COC(=O)c1cc(CNC(=O)CCCSc2ccccc2)ccc1OC
11%	CSc1ncccc1C(=O)NCCc1ccccc1F
9%	Cc1ccc(-c2cn3cccc(C)c3n2)cc1NS(=O)(=O)c1ccccc1
-1%	COc1ccc(NC(=O)COC(=O)C23CC4CC(CC(NC(C)=O)(C4)C2)C3)cc1S(=O)(=O)N1CCOCC1
-6%	CO/N=C/C(C#N)=C/c1ccc(OC)c(OC)c1
-2%	CCCCCCc1cc2cc(C(=O)NC)c(=N)oc2cc1O
9%	CN1C(=O)NC(c2ccccc2Cl)C2=C1CC(C)(C)CC2=O (centres undefined)
-3%	O=C(NCc1cccs1)C1CC(c2ccc(Cl)c(Cl)c2)=NO1 (centres undefined)
3%	CCOC(=O)CNC(=O)CNC(=O)Cn1ccc2ccccc2c1=O
2%	CCCCn1c(N)c(N(Cc2ccccc2OC)C(=O)CN2C(=O)NC3(CCCC3)C2=O)c(=O)[nH]c1=O
-5%	Cc1cc(C)c(NC(=O)Cn2c(=O)n(Cc3ccco3)c(=O)c3ccccc32)c(C)c1
-6%	COc1ccc(C(C)=O)cc1Cn1nnc(-c2ccccc2Br)n1
12%	Cc1nc2scc(-c3ccc(C(C)C)cc3)c2c(=O)n1N
-8%	CCCCNC(=O)C1CCN(C/C(C)=C/c2ccccc2)CC1
-5%	COc1ccc(-c2nnn(CC(=O)N(CC(=O)NC3CCCC3)Cc3cccs3)n2)cc1OC
-15%	O=C(NC(=S)Nc1ccccc1N1CCCCC1)c1cccs1
3%	CS(=O)(=O)c1cccc(C(=O)Nc2ccc(S(=O)(=O)N3CCCCC3)cc2)c1
13%	CC(C)(C)[C@H]1COC(=O)[C@H](NC(=O)OCC2c3ccccc3-c3ccccc32)C/C=C\C[C@@H](CC(=O)N[C@@H](CO)Cc2ccccc2)C(=O)N1
3%	COc1ccc2c(c1)CCc1c(C(=O)Nc3cc(C)n(Cc4ccc(Cl)cc4)n3)noc1-2
-24%	O=C(Nc1cccc(Br)c1)c1ccc2snnc2c1
-3%	Cc1c(C)c2c(OCC(=O)N3CCC(C(N)=O)CC3)cc3c(c2oc1=O)CCC(C)(C)O3
?	CCN1CCN(c2ccc(S(=O)(=O)N3CCCCC3)cc2NC(=O)COc2ccccc2)CC1
-9%	Cc1ccccc1OCC(=O)NCC(=O)OCc1ccc2ccccc2c1
-13%	CCOC(=O)c1c(C)[nH]c(C)c1C(=O)COC(=O)CNC(=O)C1CCCCC1
-10%	CCOc1ccc(CCNC(=O)c2ccc(N3CCCC3=O)cc2)cc1OCC
-15%	Cc1c(NC(=O)COC(=O)c2cc(-c3ccc(-c4ccccc4)cc3)nc3ccccc23)c(=O)n(-c2ccccc2)n1C
10%	CCOc1ccccc1CNC(=O)CN1C(=O)CCn2nc(-c3cn(C)c4ccccc34)cc21
-16%	C[C@H](CO)N1C[C@H](C)[C@@H](CN(C)S(=O)(=O)c2ccc(F)cc2)Oc2ccc(NC(=O)Nc3ccccc3)cc2C1=O
12%	CCOC(=O)N1CCC(NCCNC(=O)c2ccco2)CC1
-21%	CC(=O)c1ccc(NC(=O)c2cc(Cl)nc3ccccc23)cc1
-3%	Fc1cc(F)cc(NC(=S)N2CCC(c3ccccc3)C2)c1 (centres undefined)
-14%	CCOc1ccccc1N(CC(=O)NCCSc1ccccc1)S(=O)(=O)c1ccccc1
2%	COc1ccccc1NC(=S)NC1CCCCC1
-3%	O=C(COc1ccccc1Br)c1ccc2c(c1)OCO2
?	CN(C(=O)CSc1cn(CC(=O)N2CCOCC2)c2ccccc12)c1ccccc1
-8%	CC[C@]12c3[nH]c4ccc(Cl)cc4c3CCN1C(=O)[C@@H](CC(=O)NCCCOC)C[C@@H]2C(=O)N1CCN(C(=O)C2CC2)CC1
-1%	COc1cc(C(=O)N2c3ccccc3CC2C)cc(OC)c1OC (centres undefined)
11%	COc1ccc(C(O)Cn2cc([N+](=O)[O-])nc2C)cc1 (centres undefined)
-2%	O=C(Cn1ccc([N+](=O)[O-])n1)Nc1nc2ccccc2s1
3%	COc1ccc(OC)c(C(O)c2coc3ccc(O)c(CN(C)C)c23)c1 (centres undefined)

The listing continues:
VDR inh	Molecule
-1%	COc1ccccc1C(=O)NC(CCSC)C(=O)NCc1ccncc1 (centres undefined)
-8%	Cc1ccc(Cl)cc1NC(=O)/C(C#N)=C\c1cn(Cc2ccc(F)cc2)c2ccccc12
-7%	Cc1ncsc1C(=O)NCc1ccc(N2CCCC2=O)cc1
-14%	Cc1cccc(NC(=O)CSC2=NN3CCCC(=O)N=C3S2)c1C
?	O=C(/C=C/c1ccco1)Nc1cc(Cl)ccc1C(=O)O
10%	CCOC(=O)C1=C(C)N=C2SCCC(=O)N2C1c1cccs1 (centres undefined)
-6%	O=C(NCc1cccnc1)C1c2ccccc2C(=O)N1C1CCCC1 (centres undefined)
4%	CC(C)CNC(=S)N1CCN(Cc2ccc3c(c2)OCO3)CC1
2%	CCN1C(=O)/C(=C/C=C2/SCCN2C)SC1=S
-7%	CCc1ccc(Nc2n[n+](-c3ccccc3)c(-c3cccc(C)c3)s2)cc1
6%	CCOC(=O)C1CSC(CC(=O)Nc2ccc(Cl)c(Cl)c2)C(=O)N1 (centres undefined)
-8%	O=C1CCCc2c1[nH]c1ccccc21
-3%	Clc1ccccc1-c1nnc2sc(-c3cccs3)nn12
2%	COc1ccc(NC(C#N)c2ccc(OC)cc2)cc1 (centres undefined)
-4%	Cc1ccc(S(=O)(=O)N2CCCc3cc(NC(=O)c4ccccc4Cl)ccc32)cc1
-1%	O=C(O)c1ccc(CSc2nnc(-c3ccco3)n2-c2ccccc2)cc1
27%	CCSc1ncccc1C(=O)N[C@@H](CCSC)C(=O)OC
-4%	NC(=O)CN(c1ccc(Cl)cc1)S(=O)(=O)c1ccccc1
11%	CC(=O)CC1(OC(C)=O)C(=O)N(C)c2ccccc21 (centres undefined)
7%	Cc1ccc(S(=O)(=O)N(C)Cc2ccc(-c3nnc4n3CCC4)cc2)cc1
?	O=C(Nc1ccc2oc(-c3cccnc3)nc2c1)c1ccc(-c2ccc(OC(F)(F)F)cc2)o1
11%	COC(=O)c1[nH]c2ccccc2c1NC(=O)CN1CCN(Cc2ccc3c(c2)OCO3)CC1
7%	OC(CSc1ccccc1)CN1CCN(c2ccc(Cl)cc2)CC1 (centres undefined)
-4%	CC(C)(C)OC(=O)N(Cc1ccccc1)Cc1cccc(OCc2cccc(NC(=O)c3ccccc3)c2)c1
-2%	Cc1cccc(CSc2cn(CC(=O)N3CCCCC3)c3ccccc23)c1
-18%	COc1ccc(OC)c2[nH]c(C(=O)N3CCC(C(=O)O)CC3)cc12
-7%	Cc1ccsc1C=C1C(=O)c2ccccc2C1=O
-2%	CCCCN(C)C(=O)Cn1nc(Cc2ccncc2)c2ccccc2c1=O
-8%	Cc1ccc(C)c(C(=O)N2CCC(n3nccc3NC(=O)C3CC3)CC2)c1
13%	Cc1ccc(Oc2nnc(-c3ccc(C)cc3)c3ccccc23)cc1
-14%	Cc1ccn2cc(CCNS(=O)(=O)c3ccc4c(c3)OCCO4)nc2c1
-1%	O=[N+]([O-])c1ccc(N2CCOCC2)cc1O
-8%	Cc1ccc(C(c2nnnn2C2CCCCC2)N2CCN3CCCC3C2)cc1 (centres undefined)
21%	NC(=O)C1CCN(CC(O)COCc2ccccc2Cl)CC1 (centres undefined)
-17%	CC(C)(C)NCC(O)COc1ccccc1C1CCCC1 (centres undefined)
20%	CCCCc1ccc(NC2=NCC(=O)N2CCc2ccccc2)cc1
-8%	N#Cc1cccc(Nc2c3c(nc4ccccc24)CCCC3)c1
-11%	Cc1ccccc1NC(=O)OCc1cn(-c2ccc(Cl)cc2)nn1
45µM*	O=C(Oc1ccc(Br)cc1C(=O)/C=C/c1ccccc1F)c1ccco1
-15%	O=C(CN1CCc2cc3c(cc2C1)OCCCO3)Nc1cccc(Br)c1

17 neighbouring entries already listed:
VDR inh	Molecule
?	O=C(Nc1ccc2oc(-c3cccnc3)nc2c1)c1ccc(-c2ccc(OC(F)(F)F)cc2)o1
11%	COC(=O)c1[nH]c2ccccc2c1NC(=O)CN1CCN(Cc2ccc3c(c2)OCO3)CC1
7%	OC(CSc1ccccc1)CN1CCN(c2ccc(Cl)cc2)CC1 (centres undefined)
-4%	CC(C)(C)OC(=O)N(Cc1ccccc1)Cc1cccc(OCc2cccc(NC(=O)c3ccccc3)c2)c1
-2%	Cc1cccc(CSc2cn(CC(=O)N3CCCCC3)c3ccccc23)c1
-18%	COc1ccc(OC)c2[nH]c(C(=O)N3CCC(C(=O)O)CC3)cc12
-7%	Cc1ccsc1C=C1C(=O)c2ccccc2C1=O
-2%	CCCCN(C)C(=O)Cn1nc(Cc2ccncc2)c2ccccc2c1=O
-8%	Cc1ccc(C)c(C(=O)N2CCC(n3nccc3NC(=O)C3CC3)CC2)c1
13%	Cc1ccc(Oc2nnc(-c3ccc(C)cc3)c3ccccc23)cc1
-14%	Cc1ccn2cc(CCNS(=O)(=O)c3ccc4c(c3)OCCO4)nc2c1
-1%	O=[N+]([O-])c1ccc(N2CCOCC2)cc1O
-8%	Cc1ccc(C(c2nnnn2C2CCCCC2)N2CCN3CCCC3C2)cc1 (centres undefined)
21%	NC(=O)C1CCN(CC(O)COCc2ccccc2Cl)CC1 (centres undefined)
-17%	CC(C)(C)NCC(O)COc1ccccc1C1CCCC1 (centres undefined)
20%	CCCCc1ccc(NC2=NCC(=O)N2CCc2ccccc2)cc1
-8%	N#Cc1cccc(Nc2c3c(nc4ccccc24)CCCC3)c1

The list continues.
VDR inh	Molecule
4%	COc1ccccc1CNC(=O)CSc1ccc(Br)cc1
3%	CCOc1cc(CNc2ccc(S(N)(=O)=O)cc2)ccc1OCC(=O)NC(C)(C)C
18%	Cc1nc2scc(-c3ccccc3)c2c(=O)n1/N=C/c1ccco1
9%	CC(CC(=O)Nc1ncc([N+](=O)[O-])s1)c1ccccc1 (centres undefined)
-3%	CC(=O)Nc1c(Br)cc2c(c1Br)Cc1cc([N+](=O)[O-])ccc1-2
13%	Cc1cc(=O)n(CC(=O)N2CCCCC2)c2c1c(C)nn2C
-21%	Cc1ccc(NC(=O)CSCC(=O)N(C)CC(=O)Nc2cccc(F)c2)cc1
-11%	COc1ccccc1NC(=O)C12CC3CC(C1)CC(c1ccc(C)cc1)(C3)C2
-3%	CC(C)N1CCN(CCCc2ccccc2)CC1CCO (centres undefined)
-12%	CCCOc1ccc(C(=O)Nc2ccc(Cl)c(-c3nc4ncccc4o3)c2)cc1
2%	COCCn1c(SCC(=O)c2c(N)n(C3CC3)c(=O)[nH]c2=O)nnc1-c1ccc(Cl)cc1
10%	CCCCN(CC)CCNC(=O)C1CCN(c2nnc(C)c3c(C)n(-c4ccc(C)cc4)nc23)CC1
20%	O=C(N/N=C/c1ccccc1OC(F)F)c1cc(-c2ccncc2)nc2ccccc12
3%	CCCCOc1ccc(C(=O)OCC(=O)c2c(N)n(C)c(=O)n(C)c2=O)cc1
6%	O=C(NCc1ccccc1)C(C(=O)c1ccc(F)cc1)n1ccccc1=O (centres undefined)
19%	Cc1ccc(NC(=S)NCc2ccc(S(N)(=O)=O)cc2)cc1Cl
-7%	Cc1cc(C(=O)COC(=O)C2CCN(C(=O)c3ccc(Cl)cc3)CC2)c(C)n1CC1CCCO1 (centres undefined)
-4%	Cc1ccc(C(=O)CCC(=O)NCc2ccc(Cl)cc2)cc1
8%	O=Cc1cn(CCC(=O)O)nc1-c1cc2ccccc2o1
-15%	COc1ccccc1NS(=O)(=O)c1cc(C(=O)N2CC(C)CC(C)C2)ccc1C (centres undefined)
12%	CC1=C(C)CC(C(=O)NC(C)CCc2ccccc2)C(C(=O)O)C1 (centres undefined)
11%	COc1ccc(OC)c(Cc2nnc(CCC(=O)NCc3ccc(C)s3)o2)c1
18%	CCOC(=O)C1(CCOc2ccccc2)CCN(Cc2ccc(F)c(OC)c2)CC1
0%	O=C(/C=C/c1ccc2c(c1)OCO2)NCCCN1CCOCC1
?	O=C(O)/C(=C/c1c(C(=O)O)[nH]c2cc(Cl)cc(Cl)c12)c1ccccc1
3%	Cc1ccccc1Cn1nnc2c1C(=O)c1ccccc1C2=O
